Assay outcomes from PubChem.
D2 ag – activates the human D2 dopamine receptor. P14416. DiscoveRx PathHunter D2 beta-arrestin, luminescence, 90 min; 100% = 57 uM dopamine signal. activation, % (no concentration beside the values). 360,000 compounds, 0.084% hits; in the data active = activation above about 40%; inconclusive = about 15% to 40%; inactive = below about 15%; further: compound concentration not given in the record; the text of the record calls up to 30% inactive
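Agonist mode: compounds alone added to overnight-plated D2 PathHunter cells for 90 min at 37 C, with 57 uM final dopamine (EC100) defining full response. Beta-arrestin recruitment detected by chemiluminescent reagent, read after 1 h at ambient temperature.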
D2 PAM – positive allosteric modulators of human D2 dopamine receptor | P14416 | DiscoveRx D2 beta-arrestin cells, luminescence, 90 min; 100% = 57 uM dopamine signal | potentiation, % (no concentration beside the values) | 360,000 compounds, 0.23% hits | AID 624464; active = potentiation of 50% or more; inconclusive = 30% to 50%; inactive = 30% or less;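 further: compound concentration not given in the record; tested on top of an EC20 dose of dopamine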
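D2 cells co-treated with compound plus 50 nM dopamine (EC20) for 90 min at 37 deg C to detect potentiation. Beta-arrestin recruitment was read as enzyme-fragment luminescence after 1 h at ambient temperature. Full response was set by 57 uM dopamine.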
TRPV1 potentiator – potentiators of human vanilloid receptor 1 (TRPV1) | 320,000 compounds, 0.02% hits | potentiation, % at 8.33 µM | Q8NER1 | TRPV1-expressing cells, Fluo-8 calcium influx, capsaicin EC20 potentiation; host cell line not named in the record; control for the full effect not named in the record; active means potentiation above 80%; inconclusive means 30% to 80%; inactive means below 30%; further: 0% is about no effect
Target sequence (Q8NER1 whole entry, looked up): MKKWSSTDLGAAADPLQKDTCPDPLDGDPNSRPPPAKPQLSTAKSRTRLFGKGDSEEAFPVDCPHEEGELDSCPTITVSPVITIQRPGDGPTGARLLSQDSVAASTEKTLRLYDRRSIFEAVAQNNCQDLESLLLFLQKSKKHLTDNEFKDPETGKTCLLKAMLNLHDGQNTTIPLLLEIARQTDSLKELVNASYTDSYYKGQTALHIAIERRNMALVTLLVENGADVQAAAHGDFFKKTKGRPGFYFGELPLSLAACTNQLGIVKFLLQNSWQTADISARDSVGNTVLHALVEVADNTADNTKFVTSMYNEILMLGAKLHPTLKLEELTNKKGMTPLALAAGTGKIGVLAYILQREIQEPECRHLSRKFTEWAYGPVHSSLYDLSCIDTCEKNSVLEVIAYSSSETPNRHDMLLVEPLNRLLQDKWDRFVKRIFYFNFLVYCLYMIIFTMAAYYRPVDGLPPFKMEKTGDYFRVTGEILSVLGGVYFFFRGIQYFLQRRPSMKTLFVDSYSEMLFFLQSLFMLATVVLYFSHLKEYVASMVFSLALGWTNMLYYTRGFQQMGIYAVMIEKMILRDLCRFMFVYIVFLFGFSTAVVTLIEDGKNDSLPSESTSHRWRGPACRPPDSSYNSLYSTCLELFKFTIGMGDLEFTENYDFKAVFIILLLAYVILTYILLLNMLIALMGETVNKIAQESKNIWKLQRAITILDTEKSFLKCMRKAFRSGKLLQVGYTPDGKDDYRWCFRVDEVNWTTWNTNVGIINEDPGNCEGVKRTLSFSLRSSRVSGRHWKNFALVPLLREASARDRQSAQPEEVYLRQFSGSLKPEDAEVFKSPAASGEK
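TRPV1-expressing cells were cultured overnight at 35.5C and loaded with Fluo-8 calcium dye for 40 to 90 min at room temperature. After a 10 s baseline, compound was added and calcium influx was read kinetically for 3 min (ex 480/em 520 nm).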
CtBP-E1A inh – inhibitors of CtBP/E1A interaction | AlphaScreen GST-E1A/His-CtBP binding, 1536-well; stronger effect = lower value; control for the full effect not named in the record | activity change, % (concentration not given with the values) | 340,000 compounds, 0.49% hits | AID 651724; in the data active means activity change below about -65%; inconclusive means about -30% to -65%; inactive means above about -30%; further: on the % scale 0 is the no-effect control and ±100 the full control effect
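Protein mix (5X: 125 nM each GST-E1A, His-CtBP) was incubated with pinned compound 2 h at 37 deg C in dark, in 50 mM Tris pH 8.0 buffer with 300 mM NaCl. Glutathione donor and nickel acceptor beads followed; AlphaScreen signal read after 1 h.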
Six1-Eya2 inh – inhibitors of human Six1/Eya2 interaction; Q15475+O00167; AlphaScreen GST-Six1/His-Eya2 binding, biochemical; stronger effect = lower value; control for the full effect not named in the record; activity change, % (test concentration not listed); 360,000 compounds, 0.56% hits; AID 651725; in the data active = activity change below about -65%; inconclusive = about -30% to -65%; inactive = above about -30%; further: on the % scale 0 is the no-effect control and ±100 the full control effect
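AlphaScreen luminescence read after one hour at 37 °C in darkness. Pin-transferred compounds met GST-Six1 and His-Eya2 protein (5X stock 250 nM/500 nM) plus glutathione donor and Ni-chelate acceptor beads (5X, 50 ug/mL).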
Sfp PPTase inh – inhibitors of Bacillus subtilis Sfp phosphopantetheinyl transferase; Biochemical Sfp PPTase activity, qHTS; Potency, µM, for the others: max response, negative = inhibition, most hits filed as inhibitors; 310,000 compounds, 3.5% hits; active means well fitted inhibition curve with a large enough effect; inconclusive means small, poorly fitted or top-dose-only effect, or another doubt; inactive means no such curve, though single readings can be large or run the other way;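 further: the enzyme is Sfp with the accession as filed and its product quenches rhodamine fluorescence; potency means the concentration at half of the fitted maximal effect; 0% = enzyme reaction without inhibitor and -100% = no enzyme wells; top concentration of the series not given in the record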
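Sfp 15 nM + cpd, 15 min RT; start w/ rhodamine-CoA 5 uM, BHQ-2-YbbR 12.5 uM (final); 50 mM Hepes pH 7.6, 10 mM MgCl2, 0.01% NP-40, 0.01% BSA; read 525/598 nm at 0 and 30 min.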
PINK1 modulator – PINK1 expression modulation; AID 624263; Potency, µM (titrated, usually from 76.6 µM), inactives show at the top dose activation (PINK1 increase), usual class: activators; PINK1 immunofluorescence, high-content cytometry, 24 h; 410,000 compounds, 0.2% hits; active = well fitted activation curve with a large enough effect; inconclusive = small, poorly fitted or top-dose-only effect; inactive = flat fitted curve, though single readings scatter; cell line not stated here;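 further: potency means the concentration at half of the fitted maximal effect; % of control where 0% means no effect; nearly all actives have a fitted effect of over 65% in size; a mitochondrial uncoupler was the plate control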
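Cells are seeded, rested 12 hours, then given compound at five concentrations or DMSO for 24 hours. After fixation, blocking and antibody staining, PINK1 amount and mitochondrial localization are scored; CCCP serves as control.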
Active calls of the source: *; ? = inconclusive; . = no result given; [ ] = another dose, or the depositor's remark.

SMILES	D2 ag	D2 PAM	TRPV1 potentiator	CtBP-E1A inh	Six1-Eya2 inh	Sfp PPTase inh	PINK1 modulator
CCC(C)n1cnc2c(=O)oc3ccccc3c21 (stereo not given)	-2.9	-4	-9	8	-12	18%	.
C[C@@H]1CCCCO[C@H](CN(C)Cc2ccc(C(F)(F)F)cc2)[C@H](C)CN([C@@H](C)CO)C(=O)c2cc(NC(=O)Cc3ccccc3)ccc2O1	-7.7	-6	.	2	5	.	1.7%
Cc1ccc(CCNS(=O)(=O)c2cnc[nH]2)cc1	-2.5	-8	-6	6	4	3%	-0.3%
CCN(CC)CCCC(C)NC(=O)c1cc(=O)c2ccccc2o1 (stereo not given)	-1.6	-1	-12	2	1	22%	0.9%
O=C(C[C@H]1C/C=C/CC[C@@H](Cc2ccc(F)cc2)C(=O)O[C@@H](c2ccccc2)CNC1=O)NCCO	-1.6	-7	.	.	8	.	2.8%
O=C(O)COc1ccccc1Cc1ccccc1	-0.2	-18	9	-3	5	18%	-1.4%
COc1ccc(C(=O)Nc2ccc3ccccc3n2)c(OC)c1OC	-3.6	2	-1	1	4	13%	1.5%
Cc1cccnc1NC(=O)c1ccc2c(c1)NC(=O)C(C)S2 (stereo not given)	-1.3	-31	5	3	2	.	2.8%
O=C(CSc1nc(O)c(C2CCCCC2)c(=O)[nH]1)Nc1ccc(F)cc1	-7.8	4	11	4	1	16%	1.4%
CN(C)S(=O)(=O)c1cccc(NC(=O)CN2C(=O)C3C4C=CC(C4)C3C2=O)c1 (stereo not given)	-2.9	-17	-2	17	1	16%	5.7%
CCOC(=O)NC(=O)CSc1ccc2ccccc2n1	-1.7	0	-3	-1	2	-6%	1.0%
COc1ccc(CCNC(=O)C2CCCN(C(=O)c3ccc(Cl)cc3)C2)cc1 (stereo not given)	-1.2	-2	1	-8	6	19%	-0.4%
COc1ccc(C(CNC(=O)c2cccc(S(=O)(=O)Nc3ccc(F)cc3)c2)N2CCOCC2)cc1 (stereo not given)	-2.1	-1	.	-21	7	.	0.8%
COc1ccc(NC(=O)CCCCn2c(=O)[nH]c3ccccc3c2=O)cc1	-3.2	-11	8	-1	2	9%	5.9%
N#Cc1cn(CC(=O)O)c2ccccc12	-0.9	-11	?	.	11	-12%	0.2%
Cc1nc(-c2cccc(NC(=O)Cc3ccccc3)c2)cs1	-0.8	-6	-5	-16	-13	4%	-2.3%
O=C(CCCc1ccccc1)Nc1nccs1	-3.2	-5	.	10	11	.	0.4%
Cc1cc(CC(C)C)n(-c2nc3ccccc3c(=O)n2OCc2ccccc2)n1	-2.8	3	-5	9	-2	-4%	-1.5%
COc1ccc(OC)c(C2C(C(C)=O)=C(C)Nc3ncnn32)c1 (stereo not given)	-0.5	-8	12	7	7	7%	0.9%
Cc1ccc(S(=O)(=O)NCCC(=O)N2CCN(S(=O)(=O)c3cccc(F)c3)CC2)cc1C	-4.9	-2	-8	-6	7	.	0.6%
O=C(O)CCC(=O)N1N=C(c2ccco2)CC1c1ccco1 (stereo not given)	3.3	-3	?	-5	8	8%	0.4%
CC(C)(C)n1nnnc1C(c1cccc(C(F)(F)F)c1)N1CCOCC1 (stereo not given)	-0.5	-6	-5	8	3	23%	.
COc1ccc(C)cc1S(=O)(=O)N1CCC(C(=O)N2CCOCC2)CC1	-1.5	-6	-17	5	0	1%	1.3%[38.3 µM]
CCc1ccc(NC(=O)NCc2ccccn2)cc1	-4.5	-32	11	-3	-4	10%	-1.0%
O=C(CN1CCN(S(=O)(=O)c2ccc(F)cc2)CC1)NCC1(N2CCOCC2)CCCCC1	0.2	3	9	6	0	.	0.5%
O=C(COC(=O)c1cccc(F)c1)NC1CC1	0.4	-4	2	4	0	17%	6.6%
CN(Cc1ccccc1)S(=O)(=O)c1ccc(N2CCOCC2)nc1	-0.6	0	-15	4	7	24%	3.3%
CCc1c(O)nc(SCC(=O)Nc2ccccc2C)[nH]c1=O	0.0	-10	2	1	2	9%	7.5%[38.3 µM]
CCCCNC(=O)NS(=O)(=O)c1ccc(NS(=O)(=O)c2ccccc2)cc1	-3.6	-2	7	5	3	5%	0.1%
CNc1cccc(-c2ccc(N3CCN(C)CC3)nc2)n1	-3.5	-11	.	2	-2	.	0.6%

Quoted from the listing.
TRPV1 potentiator result of Cc1cc(CC(C)C)n(-c2nc3ccccc3c(=O)n2OCc2ccccc2)n1 reads -5
D2 PAM result of CCC(C)n1cnc2c(=O)oc3ccccc3c21 (stereo not given) reads -4
Six1-Eya2 inh result of CN(Cc1ccccc1)S(=O)(=O)c1ccc(N2CCOCC2)nc1 reads 7
PINK1 modulator result of O=C(O)CCC(=O)N1N=C(c2ccco2)CC1c1ccco1 (stereo not given) reads 0.4%
Sfp PPTase inh result of CCOC(=O)NC(=O)CSc1ccc2ccccc2n1 reads -6%

More records follow:
SMILES	D2 ag	D2 PAM	TRPV1 potentiator	CtBP-E1A inh	Six1-Eya2 inh	Sfp PPTase inh	PINK1 modulator
COc1cc(S(=O)(=O)N2CCOCC2)ccc1NC(=O)CSc1nnc(N)s1	-4.1	5	-1	1	-2	3%	-0.7%
O=C(CCCCCCN1C(=O)c2ccccc2C1=O)NC1CCCCC1	-4.0	3	-31	-2	2	11%	-0.3%
CCOc1ccc(CN2C(=O)c3ccccc3C2=O)cc1C(=O)O	2.9	2	0	2	-4	4%	-2.9%
COc1ccc(C(=O)OCC(=O)N2CCc3ccccc3C2)cc1OC	2.1	-9	.	-2	-1	.	-0.3%
O=c1[nH]c2cc(F)ccc2c2ccc(F)cc12	-2.3	-23	.	1	-13	.	-2.8%
CC1CCc2nc(NC(=O)c3cc(C(C)(C)C)nn3C)sc2C1 (stereo not given)	-4.1	-12	1	.	-6	6%	5.2%
CC1CC(C)CN(CCCNC(=O)Cc2c(C(=O)O)[nH]c3ccccc23)C1 (stereo not given)	-4.2	-4	11	0	-2	-1%	3.7%
CCOc1ccccc1N1CCN(Cc2ccc(Br)s2)CC1	1.8	-5	-6	-5	-8	?	22%
CC(N)c1csc(NC(=O)c2cc(C(C)(C)C)nn2Cc2ccccc2)n1 (stereo not given)	4.6	-7	.	-21	-19	.	2.0%
CC1(C(=O)NS(=O)(=O)c2ccc(F)cc2F)CCN1C(=O)CC(c1ccccc1)c1ccccc1 (stereo not given)	4.3	-8	.	3	2	.	0.0%
CC(C)(C)c1ccc(C(=O)NCCCNC(=O)c2cccnc2)cc1	4.7	-3	-9	3	-4	2%	-1.0%
C=CC[C@@H](Cc1ccc(F)cc1)C(=O)OC[C@@H]1CCCN1C(=O)[C@H](CC=C)CC(=O)N(CCO)Cc1ccccc1	-9.3	-12	.	-15	-8	.	-0.8%
Cc1ccc(S(=O)(=O)N(C)CC(=O)OCC(=O)NCCc2ccc(S(N)(=O)=O)cc2)cc1	-6.3	-15	.	0	25	.	-5.0%
CCOC(=O)[C@]12CCC=C1N(Cc1ccc3c(c1)OCO3)C(=O)[C@H](CC(=O)NCCCOC)C2	.	.	.	-1	1	.	-0.9%
Cc1cc(C)nc(N2CCCC(C(=O)NCCC3=CCCCC3)C2)n1 (stereo not given)	-0.7	-6	-4	7	4	21%	8.1%[38.3 µM]
O=C(Cn1nnc(-c2ccccc2)n1)Nc1ccc2c(c1)OCO2	-4.9	2	-8	-4	6	7%	-4.3%
Cc1ccccc1CN1CCN(Cc2ccccc2C(F)(F)F)CC1	-0.8	-26	-13	21	11	?	10µM*
O=C1NC[C@H](CCCCN2C[C@@H](Cc3ccccc3)N(CCC3CCCCC3)C(=O)C2=O)N(CCC2CCCCC2)C1=O	.	.	.	0	13	.	-0.8%
CC(=O)c1cccc(NC(=S)Nc2ccc(F)cc2)c1	3.8	-3	-26	.	5	3%	1.3%
N#CC1=C(N)Oc2cc(O)ccc2C1c1ccncc1 (stereo not given)	-0.7	-4	-5	-6	-1	3%	0.4%
Cc1ccc([C@H]2C[C@H](O)[C@@H](n3cc(-c4ccc(F)cc4)nn3)CN2CC2CCCCC2)cc1	-5.9	-6	.	0	-10	.	?
Clc1ccc(/C=C/c2ncc3ccccn23)cc1	-0.1	-2	-12	39	56	13%	5.3%
CCOC(=O)c1nc(NCc2cccc(OC)c2)c2ccccc2n1	3.0	0	12	.	-5	17%	0.1%
Cn1c(SCC(=O)N2CCN(C(=O)c3ccco3)CC2)nnc1-c1ccc(NS(C)(=O)=O)cc1	1.9	-1	1	15	19	-7%	-4.5%
Fc1cccc(Cc2noc(CN3CCCCC3CCc3ccccn3)n2)c1 (stereo not given)	2.6	-4	-2	0	6	5%	0.2%
CCC(=O)NC(C)C(c1cccs1)N1CCN(Cc2ccccc2)CC1 (stereo not given)	-3.5	-11	-3	4	3	23%	-0.3%
O=C(COC(=O)c1ccc(S(=O)(=O)N2CCCC2)cc1)Nc1ccc(F)cc1F	2.1	-4	-4	0	-1	23%	-0.7%
CN(C)C1=NCCN1CCc1ccc(F)cc1	-4.0	-8	-19	0	3	.	0.4%
CCOC(=O)c1csc(N)c1-c1ccc([N+](=O)[O-])cc1	-3.7	-13	-2	.	-18	50µM*	-1.5%
COc1ccccc1-c1nnc(NC(=O)C(C)SC2=NCCS2)s1 (stereo not given)	-3.8	-8	11	-12	0	-3%	1.7%

An excerpt from above in order of the Sfp PPTase inh value, smallest number first:
| smiles | Sfp PPTase inh |
| --- | --- |
| Clc1ccc(/C=C/c2ncc3ccccn23)cc1 | 13% |
| CCOC(=O)c1nc(NCc2cccc(OC)c2)c2ccccc2n1 | 17% |
| COc1ccc(CCNC(=O)C2CCCN(C(=O)c3ccc(Cl)cc3)C2)cc1 (stereo not given) | 19% |

New compounds follow.
SMILES	D2 ag	D2 PAM	TRPV1 potentiator	CtBP-E1A inh	Six1-Eya2 inh	Sfp PPTase inh	PINK1 modulator
COc1ccc2ccccc2c1/C=N/NC(=O)c1ccc([N+](=O)[O-])cc1	-1.4	-16	2	-6	1	22%	8.6%
COc1ccc(NS(=O)(=O)c2ccc(C)c(C(=O)N(C)CCc3ccc(OC)c(OC)c3)c2)cc1	-3.2	21	4	1	-5	.	3.8%
O=C(CCCc1ccccc1)c1ccccc1	-1.4	-6	-15	88	47	3%	1.1%
COc1ccc(CC2(CO)CCN(CC3=Cc4cc(Cl)ccc4OC3)CC2)cc1	0.9	-16	6	-12	-15	23%	-3.0%
COc1ccc(-c2nnc(COc3ccc4ccccc4c3)o2)cc1OC	1.3	4	30	-2	-1	-16%	-0.6%
CCCN(CC(=O)Nc1ccccc1OC)C(=O)c1cnc(Cl)c(Cl)c1	2.0	-1	-1	6	2	4%	1.5%
C/C(=N\NC(=S)NCc1ccccc1)c1ccc(Br)cc1	-0.5	-8	21	-21	-10	27%	6.0%

Rows were taken by chance; any-hit rate near 3.7%.
